# Bioassay records: PubChem, several laboratories
# BJeLR lethal: BJeLR cell viability loss; BJeLR (HRASV12) viability, CellTiter-Glo ATP luminescence, 48 h; reference of the scale not given here; inhibition, % (no concentration beside the values); 300,000 compounds, 0.17% hits; AID 1554;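 active = replicate mean above 50%; inconclusive = above 50% but judged a plate artefact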;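 also: 50 nL library stock added to about 25 µL; numbers are from one replicate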
# Bead autofluor: flagged as autofluorescent in microsphere protease counterscreen; compound autofluorescence counterscreen, microsphere flow cytometry; hits give high values; fluorescence intensity (no concentration beside the values); 360,000 compounds, 3.1% hits; AID 624483;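 active = at least 3 SD above the mean of all compounds, about 16000 in these data; inconclusive = too few beads counted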;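 also: 100 nL of 1 mM stock went into each well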
# PrP 5UTR inh: inhibition of PrP 5' UTR reporter expression; 340,000 compounds, 0.35% hits; inhibition, % (no concentration beside the values); cell-based PrP 5' UTR mRNA reporter, plate reader;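 active = every replicate at 50% or more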;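 also: 0 = median of the neutral control wells; tested in H4 reporter cells; numbers are from one replicate; inactives centre near -14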
# ugtP null kill: kills S. aureus RN4220 lacking UgtP | S. aureus RN4220 ugtP deletion, OD600 growth, 16 h; some inactives read as strong as hits | 330,000 compounds, 0.54% hits | growth inhibition, % (concentration not given with the values);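 active = z-score under -3 and OD600 up to 0.15 on both plates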;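 also: plate controls were untreated wells for no effect and antibiotic for full effect; wells of about 80 µL received 100 nL stock; the first replicate is given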
# Mtb hypoxia rep: inhibitors of hypoxia-regulated fluorescent reporter in Mycobacterium tuberculosis | AID 1159583 | M. tuberculosis hypoxia-regulated fluorescent reporter, fluorescence | 300,000 compounds, 0.1% hits | fluorescence inhibition, % (test concentration not listed);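 active = 35 to 45% if threefold the growth effect, above 45% if 1.5-fold the growth effect; inactive = the rest, general growth blockers included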;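 also: wells of about 50 µL received 100 nL stock; 0% = vehicle wells and 100% = reference inhibitor wells; whole bacteria with a GFP reporter of the hypoxia response; strong numbers were not always called active; many hits fall short of the cut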
# Sa RN4220 lethal: kills Staphylococcus aureus RN4220; S. aureus RN4220 growth, OD600, 16 h; inhibition, % (concentration not given with the values); 330,000 compounds, 0.33% hits;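 active = z-score of -3 or lower and OD600 up to 0.18 on both plates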;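 also: plate controls were untreated cells for no effect and reference antibiotic for full effect; stock transfer was 100 nL into about 80 µL; one replicate is shown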
# Mtb hypoxia rep growth: further read-out of Mtb hypoxia rep, marked with its call; growth inhibition, %; measured here: M. tuberculosis growth (absorbance);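 0% = vehicle and 100% = reference antibiotic; read after six days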
# Numbers without * were called inactive; ? = inconclusive; . = no result given.
SMILES,BJeLR lethal,Bead autofluor,PrP 5UTR inh,ugtP null kill,Mtb hypoxia rep,Mtb hypoxia rep growth,Sa RN4220 lethal
Cc1cccc(C)c1OCC(=O)Nn1c(C)nc2ccccc2c1=O,1,3447,-22,-9,1,8,12
COc1ccc2[nH]c3c(c2c1)CCN1C(=O)C(CC(=O)NCCN2CCOCC2)C[C@H](C(=O)N2CCOCC2)[C@@]31CCC1CCCC1 (stereo not given in full),.,3074,-9,5,-8,-1,-1.8
CCOC(=O)c1cnn(-c2cc(Oc3cccc(C)c3)ncn2)c1N,-2,3376,-19,6,11,5,3.9
Cc1cccc(NC(=O)NCC(c2ccco2)N2CCCCC2)c1 (stereo not given),1,4076,-30,10,6,10,2.5
Cc1nn(Cc2ccccc2)c(C)c1NC(=O)c1cc(-c2ccc3c(c2)OCO3)on1,-20,16514*,-12,0,5,4,-1.1
Cc1cc(C(=O)NC(C)c2ccccc2)c2cc(F)ccc2n1 (stereo not given),1,5480,-22,0,-3,0,0.6
Cc1ccccc1NC(=O)C(=O)c1cn(C)c2ccccc12,-2,3214,-19,2,9,-2,1.7
COc1ccc(N2CCN(C(=O)c3ccc(OCC4CCCO4)cc3)CC2)cc1 (stereo not given),-8,4416,-11,5,.,.,0.2
Cc1ccc(NC(=O)CCC(=O)NNC(=O)c2cccs2)cc1C,-1,9809,-16,-3,7,12,5.1
CCN(CC)c1ccc(CNc2nc3ccccc3n2C(C)C)cc1,-4,4575,.,7,3,-6,-4.8
O=C(NCc1cccs1)C1CC(=O)N(c2ccc(F)cc2)C1 (stereo not given),-9,6546,33,10,11,6,4.1
O=C(Nc1ccc(O)cc1)c1ccc(NC(=O)C2CCCO2)cc1 (stereo not given),-1,5553,-5,5,3,10,1.0

# Overlap with the part before: four compounds, then new ones.
SMILES,BJeLR lethal,Bead autofluor,PrP 5UTR inh,ugtP null kill,Mtb hypoxia rep,Mtb hypoxia rep growth,Sa RN4220 lethal
Cc1ccc(NC(=O)CCC(=O)NNC(=O)c2cccs2)cc1C,-1,9809,-16,-3,7,12,5.1
CCN(CC)c1ccc(CNc2nc3ccccc3n2C(C)C)cc1,-4,4575,.,7,3,-6,-4.8
O=C(NCc1cccs1)C1CC(=O)N(c2ccc(F)cc2)C1 (stereo not given),-9,6546,33,10,11,6,4.1
O=C(Nc1ccc(O)cc1)c1ccc(NC(=O)C2CCCO2)cc1 (stereo not given),-1,5553,-5,5,3,10,1.0
CC(C)NC(=S)N/N=C/c1ccccc1[N+](=O)[O-],-3,4340,-18,.,.,.,.
CCCc1nc2sc3c(c2c(=O)[nH]1)CCCC3,-3,4064,-7,3,9,18,1.1
COC(=O)C=c1sc2n(c1=O)CCN=2,.,.,.,-5,6,8,1.9
CCOC(=O)C1C(c2ccc(O)c(OC)c2)NC(=S)NC1(O)C(F)(F)F (stereo not given),-4,2530,2,-3,7,4,1.7
CC(C)c1ccc(-c2nnn(CCC#N)n2)cc1,-2,4987,-43,0,10,1,3.3
COc1ccc(NC(=O)CSc2nnc3ccc(-c4ccccn4)nn23)cc1,4,5343,-1,5,4,5,1.6
O=C1CC(=O)N(Cc2ccco2)C(=O)N1,-5,4215,-13,0,14,5,2.0
CCN(C(=O)CSc1nc(N)cc(N)n1)C1CCS(=O)(=O)C1 (stereo not given),10,5522,-18,1,11,-3,3.0
C/C(=N\NS(=O)(=O)c1c(C)cc(C)cc1C)c1ccncc1,6,5694,-8,.,.,.,.
O=C(CSc1ccccc1)N[C@@H](Cc1ccccc1)C(=O)O,-5,2989,-25,.,.,.,.
COc1ccc(Cl)cc1S(=O)(=O)N1CCN(c2ccc(F)cc2)CC1,-22,9083,-2,-14,12,11,4.9
O=C1OC(C(=O)Nc2nccs2)Cc2ccccc21 (stereo not given),7,5394,-18,3,.,.,0.9

# Some of the entries so far, with bars between the fields.
mol | BJeLR lethal | Bead autofluor | PrP 5UTR inh | ugtP null kill | Mtb hypoxia rep | Mtb hypoxia rep growth | Sa RN4220 lethal
COc1ccc(Cl)cc1S(=O)(=O)N1CCN(c2ccc(F)cc2)CC1 | -22 | 9083 | -2 | -14 | 12 | 11 | 4.9
O=C1OC(C(=O)Nc2nccs2)Cc2ccccc21 (stereo not given) | 7 | 5394 | -18 | 3 | . | . | 0.9

# Additional structures follow:
SMILES,BJeLR lethal,Bead autofluor,PrP 5UTR inh,ugtP null kill,Mtb hypoxia rep,Mtb hypoxia rep growth,Sa RN4220 lethal
O=C(c1cccnc1)N1CCN(S(=O)(=O)c2ccc(S(=O)(=O)N3CCCC3)cc2)CC1,-1,8951,-35,2,8,12,2.1
CC1=NN(C(N)=S)C(=O)C1N=Nc1ccc(Br)cc1 (stereo not given),-3,4351,-72,10,19,12,1.4
CC(NC(=O)Cc1ccc(-c2ccccc2)cc1)c1ccccc1 (stereo not given),6,2459,-21,-16,16,8,-23
O=C([C@@H]1CCCN1C(=O)c1cccs1)N1CCN(S(=O)(=O)c2cccc(F)c2)CC1,.,4040,-11,1,-2,2,-2.8
Cn1cc(/C=C2\SC(=S)N(NC(=O)c3ccccc3Cl)C2=O)c2ccccc21,.,3678,-4,-3,12,-5,-4.5
COc1cc(/C=N/NC(N)=O)ccc1OCC(=O)N1C(C)CCCC1C (stereo not given),6,4412,-15,.,.,.,.
COc1ccccc1/C=C/C=N/n1c(-c2ccco2)n[nH]c1=S,3,3716,7,.,.,.,.
CCOC(=O)C1(CCOC)CCN(C(=O)Cc2ccsc2)CC1,0,3971,-24,7,4,3,1.9
Cc1ccc(S(=O)(=O)N(CC(=O)c2ccccc2)C(=O)N2CCN(C)CC2)cc1,0,5284,-23,9,-1,-5,1.3
CC1CCN(S(=O)(=O)c2ccc3[nH]c(=O)c(=O)[nH]c3c2)CC1,3,9657,-32,1,11,4,3.9
Cc1ccc(OCCOc2cccc(C=C3C(=O)NC(=O)NC3=O)c2)c(C)c1,-5,5401,-31,.,.,.,.
Cc1nc2ccc(NC(=O)Cc3ccsc3)cc2s1,0,2209,-44,4,.,.,1.8
CC(C)(C)c1ccc(-c2nc(C#N)c(NCCCn3ccnc3)o2)cc1,-3,3626,-9,-9,9,-1,-14
O=C(NN=Cc1ccc(Cl)c(Cl)c1)c1ccc2nc[nH]c2c1,.,.,.,-13,11,5,-9.2
O=C(Cc1cccc(NC(=O)C2CCCN(C(=O)C3CCCCC3)C2)c1)Nc1cccc(C(=O)N2CCCC2)c1 (stereo not given),.,4079,-12,0,9,6,-10
Cc1ccc(C)c(-n2cc(CNCCc3cnccn3)c(-c3ccccc3)n2)c1,12,4265,-24,8,7,-5,-0.5
CCOc1cccc(CNCc2ccc(C(=O)O)cc2)c1,5,3988,-21,6,3,3,4.7
COc1cccc(-n2nnnc2S(C)(=O)=O)c1,-3,8682,-1,.,.,.,.
O=C(Nc1c2c(nn1-c1ccccc1)CSC2)c1ccc(N2C(=O)CCC2=O)cc1,-2,3301,-27,4,13,8,5.2
CCSc1nnc(N2C(=O)c3ccc(C(=O)c4ccc(C(=O)O)cc4)cc3C2=O)s1,4,3700,-26,11,-5,2,5.4
CCOC(=O)c1nc(C)nc(Sc2n[nH]c(-c3cc(C(F)(F)F)cc(C(F)(F)F)c3)n2)c1C,-2,3623,-21,7,2,-2,-1.9
O=c1cc(N2CCN(c3ccccc3F)CC2)[nH]c(=O)n1-c1ccc(Br)cc1,-8,4256,-18,2,-4,7,-3.3
CCc1sc(C(=O)N2CCCN(C)CC2)cc1Br,8,5673,-17,14,1,-1,4.4
C=CCNC(=O)c1ccccc1NC(=O)C1CCN(S(=O)(=O)c2ccc(SC)cc2)CC1,-7,4680,-19,5,-21,2,4.3
CC(=O)N(C)c1ccc(N=C2C(=O)Nc3ccccc32)cc1,-8,3260,-25,7,7,5,-3.0
Cc1ccc(SCC(=O)N2N=CCC2c2ccccc2)cc1 (stereo not given),7,3622,-32,4,1,11,4.9
CC1=C(C(=O)Nc2ccc(C)cc2C)C(c2ccc(Cl)cc2)n2nc(C(=O)OC(C)C)nc2N1 (stereo not given),-7,2622,-12,6,7,5,4.6
CCCN(CC(=O)Nc1ccccc1OC)C(=O)CCNC(=O)c1ccccc1OC,11,?,-13,9,10,-1,3.4
CNC(=S)N1CCN(c2nc(-c3cccc(OC)c3)cs2)CC1,1,4342,-8,1,-3,-5,2.0
COc1ccccc1OCC(O)Cn1c(=N)n(Cc2ccccc2)c2ccccc21 (stereo not given),1,24188*,-3,-15,9,14,3.4
COc1ccc(C=NNC(=S)NN=Cc2ccc(OC)c(OC)c2)cc1OC,.,3743,-17,4,20,9,2.9
Cc1[nH]nc2c1C(c1cccnc1)N(c1ccc(Br)cc1)C2=O (stereo not given),3,4260,-10,2,7,6,1.4
Cc1ccc(-c2csc(NC(=O)c3c(C)noc3C)n2)s1,.,3312,-50,-2,5,5,1.9
Nc1nc(SCc2ccccc2)[nH]c(=O)c1-c1ccccc1,5,11106,-71,8,11,5,-3.1
COc1cc(SC)ccc1C(=O)OCC(=O)NCCNC(=O)COC(=O)c1ccc(SC)cc1OC,-3,5513,-12,-2,8,-2,5.7
O=C(CN(c1ccc2c(c1)OCCO2)S(=O)(=O)c1ccccc1)Nc1ccc2c(c1)OCO2,1,4435,-16,-6,.,.,-5.5
Cc1c(C(c2cccc(Br)c2)c2c(C)n(C)n(-c3ccccc3)c2=O)c(=O)n(-c2ccccc2)n1C,-17,3496,-19,12,8,12,1.5
CC(C)C[C@H](NC(=O)c1nc[nH]c1C(=O)N[C@@H](CCCCNC(=O)OC(C)(C)C)C(=O)OC(C)(C)C)C(=O)OCc1ccccc1,8,3794,-29,.,.,.,.
O=C(NNC(=O)c1ccc([N+](=O)[O-])cc1Cl)c1ccncc1,11,9509,0,.,.,.,.
CCn1c(SCC(=O)Nc2ccc3c(c2)OCO3)nc2c1c(=O)n(C)c(=O)n2C,10,2380,-18,-1,.,.,3.5
O=C(NN1C(=O)C2C3c4ccccc4C(c4ccccc43)C2C1=O)c1ccccc1 (stereo not given),1,2384,-21,-2,3,-2,3.9
O=C(c1ccco1)N1CCCC(c2nc3c(nnn3Cc3c(Cl)cccc3Cl)c(=O)[nH]2)C1 (stereo not given),-7,5731,0,-7,-5,11,-1.7
CC(=O)Nc1ccc(NC(=O)COC(=O)C2c3ccccc3Oc3ccccc32)cc1,-2,4482,-34,20,4,9,2.7
Cc1ccc(CNC(=O)C2CCCN(C(=O)Nc3ccc(F)cc3)C2)cc1 (stereo not given),-7,4129,-4,8,16,7,2.5
O=c1c2ccccc2nc(NN=Cc2ccccc2)n1O,.,.,.,-6,11,12,5.0
COc1ccc(N(C(=O)C(C)C)S(=O)(=O)c2ccc(Cl)cc2)cc1,11,16342*,-18,9,8,-1,-0.2
CC1CN(C(C)CO)C(=O)c2cccc(NC(=O)C3CC3)c2OC1CN(C)S(C)(=O)=O (stereo not given),.,.,.,3,7,11,3.6
COc1ccccc1-c1ccc(=O)n(CC(=O)NCc2cccs2)n1,4,4158,-22,-2,2,7,5.4
COc1ccc(NS(=O)(=O)c2ccc3oc(SCC(N)=O)nc3c2)cc1,-12,3584,-12,6,-12,-1,1.5
O=C(Nc1ccccc1C(=O)N1CCN(c2ccccc2)CC1)c1ccco1,7,3886,-21,0,8,11,3.6
Cc1ccc(C(OCC(O)CN2CCCCC2)c2ccccc2)cc1 (stereo not given),-4,4140,-14,7,5,17,0.9
O=C(CSc1nnc(-c2ccccn2)n1Cc1ccccc1)Nc1ccc2c(c1)OCO2,-1,4306,-12,5,.,.,4.1
Cc1c(OC(C)C(=O)NCCCN2CCOCC2)ccc2c1oc(=O)c1ccccc12 (stereo not given),7,5033,-10,2,13,8,0.1
Cc1cc2nc(-c3ccc(SCc4ccccn4)nc3)[nH]c2cc1C,-10,5368,-56,-4,-6,-5,-8.6
CCn1cc([N+](=O)[O-])c(C(=O)N2CCN(C(=O)c3ccco3)CC2)n1,4,1952,-6,5,-6,-4,2.8
Cc1ccc(C(=O)N2CC=C(c3ccccc3)CC2)o1,3,?,-10,-3,6,20,3.6
CC(C)C1Cc2ccccc2-c2[nH]c(=S)[nH]c(=O)c21 (stereo not given),2,6051,.,-2,12,-1,1.0
Cn1c(O)c(C(=O)c2ccccc2Cl)c(=O)n(C)c1=O,-2,6619,-19,8,14,2,1.5
